CDC25B CDK2 inh: primary biochemical HTRF screen for blockers of M-phase inducer phosphatase 2 binding to CDK2/cyclin A | P30305+P24941 | HTRF CDC25B-CDK2/CyclinA binding, anti-His/anti-Flag; active compounds read high | z-score (no concentration beside the values) | 94,000 compounds, 0.72% hits;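 further: score is relative to mean and SD of negative controls; strong numbers were not always called active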
HIV TAR-Tat: TAR RNA-Tat peptide displacers, HIV-1, primary screen, biochemical, FRET, FAM/TAMRA-labeled Tat; AID 1259389, 2018; z-score (concentration not given with the values); HIV-1 TAR RNA, Tat peptide displacement FRET; active compounds read high; 100,000 compounds, 0.6% hits;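 further: score is relative to mean and SD of negative controls; some compounds called inactive have numbers as strong as hits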
Starred values were filed as active, the others as inactive; . = no result given.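 How the source made its calls: active means z-score from 3 up in half or more of its runs; inactive means the rest.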

molecule	CDC25B CDK2 inh	HIV TAR-Tat
O=C(Cn1cc(S(=O)(=O)Cc2ccccc2F)c2ccccc21)N1CCc2ccccc21	.	0.5
COc1cccc2c1OC(c1cccc(F)c1)N1N=C(c3ccccc3O)CC21 (stereo not drawn)	-0.43	-0.38
O=C1c2ccncc2C(=O)N1Cc1ccccc1Cl	.	1.1
COc1cccc(C2CC(=O)Nc3c2c(C)nn3-c2ccc3nncn3n2)c1OCc1ccccc1 (stereo not drawn)	-1	2.8
O=C(c1cc2c(Cl)ccc3c2n1CCO3)N1CCN(c2ccccc2)CC1	.	1.2
NC(=O)c1nc(-c2ccc(Cl)cc2)nc2c1[nH]c(=O)n2-c1cccc(Cl)c1	.	0.12
COc1ccc(C(=O)/C(C#N)=C/c2cccs2)cc1	-0.87	.
Cc1cc(N2CCN(c3cccc(Cl)c3)CC2)n2cnnc2n1	0.17	3.6
Cc1nnc2c(N3CCC(C(=O)O)CC3)nc3ccccc3n12	-1.9	1.8
Cc1ccc2ncc(NC(=O)c3ccccc3C)c(=O)n2c1	-0.73	0.49
Cc1ccc(SCc2nc3sccn3c2Br)cc1	-3	0.33
COc1cc(-c2cc(N)n(S(=O)(=O)c3ccc(C)cc3)n2)cc(OC)c1OC	-1.9	.
COc1ccc(C(O)(c2ccccc2OC)C(CN2CCOCC2)c2ccccc2)cc1 (stereo not drawn)	0.07	1.7
O=C(c1ccc2c(=O)n(Cc3ccco3)c(=S)[nH]c2c1)N1CCc2ccccc2C1	-0.94	.
Cc1c(-c2ccccc2)nnn1-c1ccc(F)c(Cl)c1	-0.6	.
O=c1cnnc2sc(SCc3ccc(Cl)cc3)nn12	1.3	1.8
Cc1c(C(=O)N2CCCC2)sc2nc3n(c(=O)c12)CCCC3	.	2.1
Cc1ccc2c(c1)c1c(n2CC(O)Cn2nc(C)nc2C)C(=O)CCC1 (stereo not drawn)	-0.36	.
Cc1ccc(C)c(S(=O)(=O)NCC(c2ccc(N(C)C)cc2)N2CCOCC2)c1 (stereo not drawn)	.	0.04
Cc1ccccc1NS(=O)(=O)c1cc(-c2cnc(C3CC3)o2)ccc1C	.	0.58
Cn1c(C(=O)N2CCC(C(=O)NCc3ccco3)CC2)cc2sccc21	-1.4	-0.86
CCOC(=O)C1C(=O)C=C(c2cccs2)CC1c1ccc(OC)c(OC)c1Cl (stereo not drawn)	-1.6	.
CC1Sc2ccc(S(=O)(=O)CCC(=O)Nc3cc(F)ccc3F)cc2NC1=O (stereo not drawn)	.	1.6
Cc1ccc(S(=O)(=O)N2CCCC(c3nc(-c4ccc(Cl)cc4)no3)C2)cc1C (stereo not drawn)	.	1.6
O=c1cc(CSCc2ccco2)nc2sc(-c3ccccc3)nn12	-1.8	1.5
Nc1nc2c(c(=O)[nH]1)C(c1cc(Br)ccc1F)CC(=O)N2 (stereo not drawn)	-0.1	-0.82
O=C(CCCN1C(=O)C2C3C=CC(C3)C2C1=O)N1CCN(c2ccc(F)cc2)CC1 (stereo not drawn)	0.31	.
Cc1cccc(N2C(=O)C3C(c4ccccc4)OC4(C(=O)c5ccccc5C4=O)C3C2=O)c1C (stereo not drawn)	-0.18	1.3
Cc1cccc(NC2=NC(c3cccnc3)n3c(nc(C)cc3=O)N2)c1 (stereo not drawn)	1.6	-0.25
COc1ccc(C2=NS(=O)(=O)N(C)C(C(=O)Nc3ccc4c(c3)OCO4)=C2)cc1OC	-2.3	2.3
COC(=O)c1c(C)nn(C(C)=O)c1COc1ccccc1	-1.5	.
CCCN1CNC(=S)N(c2cccc(Cl)c2)C1	-0.36	.
Clc1ccc(OCCN2CCNCC2)cc1	-1.3	-0.44
Cc1ccc(S(=O)(=O)NCc2nc(-c3ccccc3C)oc2C)cc1	.	1.9
Cc1ccc(CN(C(=O)c2cc(=O)c3c(C)cc(C)cc3o2)C2CCS(=O)(=O)C2)cc1 (stereo not drawn)	-1.3	-0.79
O=C(CSc1nc2ccccc2o1)NC1Cc2ccccc2C1	0.09	.
CCCN(CCC)C(=O)Nc1ccc2c(c1)N(CC)C(=O)c1ccccc1S2	-1.7	-0.19
CCOC(=O)c1c(C)n(-c2ccc(Br)cc2)c2ccc(O)cc12	-2.4	0.49
Nc1cccc(N2CCn3c(nc4ccccc43)C2)c1	7.4*	-3.4
Cn1ncc2c(NCCN3CCN(c4ccccc4)CC3)ncnc21	.	2.5
Cc1cc2c(cc1C)CN(c1ccccc1)C2	-2.5	.
COCCn1c(SCC(=O)N2CCc3ccccc32)nc2c(c1=O)SCC2	-1.3	0.86
CCN(CC)S(=O)(=O)c1ccc2c(c1)N(CC(=O)N1CCOCC1)C(=O)CO2	1.1	0.21
Cc1ccc(-c2onc(C)c2C)cc1S(=O)(=O)NCc1ccc2c(c1)OCO2	.	2.2
Cc1cc(C)n2cc(COc3ccc(Cl)cc3)nc2n1	.	0.36
CCn1c(=O)n(CC)c2cc3nc4c(nc3cc21)C(=O)c1ccccc1-4	-1	0.26
O=c1nc(SCc2ccc(F)cc2)c2c(n1C1CCCCC1)CCC2	-0.56	0.99
COc1ccc(C(=O)CC2(O)C(=O)N(Cc3ccccc3)c3ccc(Br)cc32)cc1OC (stereo not drawn)	0.68	1.1
O=C(CSc1nc(-c2ccco2)nc2cc(=O)[nH]n12)NCc1ccccc1	.	1.4
COc1ccc2c(c1)C(C)=CC(C)(C)N2S(=O)(=O)c1ccc(Cl)cc1	1.5	0.02
O=C(NCc1ccco1)c1c(NC(=O)c2nn(-c3ccc(F)cc3)ccc2=O)sc2c1CCC2	-1.3	0.78
Cc1nnsc1C(=O)Nc1sc2c(c1C(N)=O)CCCC2	-2.1	-0.89
CCOC(=O)C(=O)N1N=C(CC(C)C)CC1(O)C(F)(F)F (stereo not drawn)	-1.2	.
COC(=O)c1ncn2c1C(=O)N(CCc1cccs1)C(C)(C(=O)NC1CCCCC1)C2 (stereo not drawn)	.	2
COC(=O)C1C(=O)C2=C(CC1C)NC(=O)CC2c1ccc(F)cc1 (stereo not drawn)	-1	-0.09
CCc1oc2cc(OC(C)C(=O)O)ccc2c(=O)c1-c1ccc2c(c1)OCCO2 (stereo not drawn)	-0.76	.
COc1cc(OC)c(NC(=O)C(NS(=O)(=O)c2ccc3nc(C)sc3c2)C(C)C)cc1Cl (stereo not drawn)	-0.46	.
Cc1ccc(CNC(=O)c2ncoc2-c2cccs2)o1	.	1.7
Cc1ccc(NS(=O)(=O)c2cn(C)c(C)n2)c(Cl)c1	.	2
CCn1c(C(C)N2CCCCC2)nc2ccccc21 (stereo not drawn)	-1.1	1

Later entries
molecule	CDC25B CDK2 inh	HIV TAR-Tat
CCOC(=O)CC1=C(C(=O)OCC)C(c2ccc(C)o2)C(C#N)=C(N)O1 (stereo not drawn)	0.13	.
COc1ccccc1N1CCN(CCCCNS(=O)(=O)c2ccc(Cl)c(Cl)c2)CC1	-1.4	.
Cc1ccc(S(=O)(=O)[C@H]2CS(=O)(=O)C[C@@H]2NCCCc2ccccc2)cc1	-2	1
Cc1cc(=O)oc2cc(OCC(=O)NC3CCCCCC3)ccc12	-1.8	.
NC(=O)c1cc(S(=O)(=O)N2CCc3ccccc3C2)cs1	.	1.5
O=C(Nc1ccc2c(c1)OCO2)N1CCc2c([nH]c3ccccc23)C1c1ccc(F)cc1 (stereo not drawn)	.	-0.69
CCN(CC)S(=O)(=O)c1ccc2c(c1)n(C)c(=O)c(=O)n2C	-0.93	0.74
O=C(Nc1c(C(=O)N2CCC(N3CCCCC3)CC2)oc2ccccc12)C1CC1	.	0.48
COC(=O)COc1ccc2c(=O)c(Oc3cc(C)ccc3C)coc2c1	0.09	.
Cc1nonc1NC(=O)OC(C)C	-2	-1.5
CC(C)Nc1cc(N2CCCCC2)c2noc3c2c1C(=O)c1ccccc1-3	-1.2	0.79
COc1ccc(C2=NC(c3cccnc3)NC(c3ccccc3O)C2)cc1 (stereo not drawn)	-1.9	.

Structural class: the compounds so far containing two or more sulfur atoms (9)
molecule	CDC25B CDK2 inh	HIV TAR-Tat
Cc1ccc(SCc2nc3sccn3c2Br)cc1	-3	0.33
O=c1cnnc2sc(SCc3ccc(Cl)cc3)nn12	1.3	1.8
CC1Sc2ccc(S(=O)(=O)CCC(=O)Nc3cc(F)ccc3F)cc2NC1=O (stereo not drawn)	.	1.6
O=c1cc(CSCc2ccco2)nc2sc(-c3ccccc3)nn12	-1.8	1.5
COCCn1c(SCC(=O)N2CCc3ccccc32)nc2c(c1=O)SCC2	-1.3	0.86
Cc1nnsc1C(=O)Nc1sc2c(c1C(N)=O)CCCC2	-2.1	-0.89
COc1cc(OC)c(NC(=O)C(NS(=O)(=O)c2ccc3nc(C)sc3c2)C(C)C)cc1Cl (stereo not drawn)	-0.46	.
Cc1ccc(S(=O)(=O)[C@H]2CS(=O)(=O)C[C@@H]2NCCCc2ccccc2)cc1	-2	1
NC(=O)c1cc(S(=O)(=O)N2CCc3ccccc3C2)cs1	.	1.5

Next section
molecule	CDC25B CDK2 inh	HIV TAR-Tat
CCOc1ccccc1OCCCCCc1c(C)n[nH]c1C	-1.7	-1.7
O=C(CC1Nc2ccccc2NC1=O)Nc1ccccc1F (stereo not drawn)	-1.1	.
O=S(=O)(Nc1cccc(-c2ccc(N3CCCCC3)nn2)c1)c1ccccc1F	.	1.1
O=C(NO)C12CCCC(CCC1)C2	-2.8	.
CN(C(=O)c1noc2c1COc1ccccc1-2)c1ccccc1	-1.6	-0.13
CCCCc1nnc(NC(=O)CSCc2cc(=O)n3c(C)csc3n2)s1	.	-0.1
Cc1ccc(NC(=O)Nc2c[nH]c(=O)[nH]c2=O)cc1F	.	1.2
COc1cc(NC(=O)CCCc2nnc3n(C)c(=O)c4sccc4n23)cc(OC)c1	.	-1.8
COc1ccc(-c2nc3c([nH]2)c(=O)n(C)c(=O)n3C)c(OC)c1	-2.9	0.83
O=C(CSCCS(=O)(=O)c1ccc(Cl)cc1)NCc1ccccc1	-1.6	.
O=c1c(N2CCc3ccccc3C2)csc2ccc(F)cc12	.	0.81
COc1ccc(NC(=S)NNC(=O)c2nc3ccccc3c(=O)[nH]2)cc1	-2.3	.
COc1ccc(SCc2cc(=O)n3nc(-c4cccs4)sc3n2)cc1	-2.4	1.2
O=S(=O)(c1ccc(Cl)cc1)c1nc(-c2ccco2)oc1N1CCCCC1	-0.7	0.61
CCC(C)NC(=O)c1cnn2c3c(cnc12)CC(C)CC3 (stereo not drawn)	.	-1.3
COC(=O)c1sc2ccccc2c1NC(=O)c1coc2ccccc2c1=O	0.55	.
Cc1cccc(-n2c(SCC(=O)O)nc3sc4c(c3c2=O)CC(C)(C)OC4)c1	-1.4	0.82
CCOC(=O)COc1ccc(C2C(C(=O)OC)=C(C)NC3=C2C(=O)c2ccccc23)cc1 (stereo not drawn)	.	-1.4
CCCCCSc1nnc(-c2ccc(Br)cc2)o1	-2.4	2.6
COc1ccc(Nc2nc3ccc(C)cc3n3nnnc23)cc1	-0.88	0.24
Cc1cccn2c(=O)c(C(=O)NCc3cccnc3)c(O)nc12	-2.1	-0.85
CN1CCN(c2ccc(CNS(=O)(=O)Cc3cccc(C(F)(F)F)c3)cc2)CC1	-1.3	.
CN1C(CC(=O)c2ccccc2)CCCC1CC(O)c1ccccc1 (stereo not drawn)	.	1.3
CC1CSc2ccc(S(=O)(=O)Nc3ccc4c(c3)OCO4)cc2NC1=O (stereo not drawn)	.	0.76
COc1ccc(S(=O)(=O)Nc2cccc(-c3ccc(OC)nn3)c2)cc1	.	0.58
COC(=O)/C(=C\Nc1ccc(Oc2cncc(Cl)c2)nc1)NC(=O)c1ccccc1	0.09	.
CCOC(=O)C(CC)Oc1ccc2c(=O)c(-c3ccc(Cl)cc3)coc2c1 (stereo not drawn)	-1.6	-1.6
CC(=O)N1CCN(S(=O)(=O)c2cc3c4c(c2)CC(=O)N4CCC3)CC1	.	2.9
COc1ccc([N+](=O)[O-])c(OC)c1C(=O)Oc1ccccc1C(C)=O	-0.67	.
NS(=O)(=O)c1ccc(F)cc1Cl	-0.75	.
CC(C)Sc1ncc(Cl)c(C(=O)Nc2sc3c(c2C(=O)NCC2CCCO2)CCC3)n1 (stereo not drawn)	-0.88	1.4
COc1ccc(-c2cnn(-c3ccccc3)c2N)cc1OC	0.99	.
O=C(CCc1nnc2ccc(NCCCN3CCCC3=O)nn12)NC1CCCCC1	.	1.4
O=C(Nc1cccnc1)c1ccc(Cl)cc1	-1.3	.
Cc1cc(C)c2[nH]c(C)c(CN3CCCC(C)C3)c(=O)c2c1 (stereo not drawn)	-1.8	.
CCCCCOC(=O)C1=C(C)NC2=C(C(=O)CC(C)(C)C2)C1c1ccc(OC(C)=O)cc1 (stereo not drawn)	0.1	1.5
Fc1cccc(CN2CCc3nc(N4CCN(c5ccccc5)CC4)ncc3C2)c1	.	-0.28
CC1(C)Cc2nc3sc4c(NCCO)ncnc4c3cc2CO1	.	-0.19
Cc1ccc2ncc(S(=O)(=O)c3ccccc3)c(N3CCCCC3)c2c1	-0.05	-0.1
Cn1c(=O)n(CC(=O)N2CCCC2)c(=O)c2cc(S(=O)(=O)Nc3ccc(F)cc3F)ccc21	.	0.62
Cc1cc(NCCN2CCCCCC2)n2c(nc3ccccc32)c1C#N	-0.79	.
C=CCn1c(C2CC(=O)N(c3ccccc3Cl)C2)nc2ccccc21 (stereo not drawn)	-0.85	2.1

Screening results deposited in PubChem BioAssay by Center for Chemical Genomics, University of Michigan.
